Screening data as filed in PubChem BioAssay.
eIF4H inh – inhibitors of RNA binding by human eIF4H | inhibition, % at 35 µM | AID 2012 | hit rate 0.94% among 290,000 | eIF4H fluorescence polarization binding assay;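 active = 50% or more with normal probe brightness, or confirmed in later tests; inconclusive = above 50% with abnormal brightness, or retests that disagree; inactive = below 50% or failed in later tests; about a fifth of its hits are not listed in these tables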;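 also: calls also rest on retests at 20 µM and on dose response follow-up; 0% = protein and probe with vehicle and 100% = probe without protein; strong numbers were not always called active; many hits fall short of the cut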
HIV Env fusion – blocks HIV Env-driven cell-cell fusion. hit rate 1.1% among 360,000. inhibition, % at 12.3 µM. HeLa-JRFL Env/CEM21 cell fusion, luciferase. AID 651610;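 active = mean replicate inhibition score of at least 50 and every replicate individually at or above 50; inconclusive = only one of the two criteria met; inactive = mean below 50 and not all replicates reaching 50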;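 also: 0% = plate neutral controls and 100% = maraviroc near 300 nM; one replicate is shown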
MT1-MMP act inh – MT1-MMP (human) activation inhibition. P50281. HT1080 RFP-PRO-GFP cells, GFP/RFP ratio fluorescence, overnight; percent of plate control window, DMSO zero. GFP/RFP ratio change, % at 20 µM. hit rate 0.061% among 360,000. AID 651647;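 active = GFP/RFP ratio change of at least 30% with cell ATP level not reduced by more than half and red fluorescence within 50% of control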; also: strong numbers were not always called active
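system = RFP-PRO-GFP reporter HT1080 cells | dosing = 20 µM single dose, 1% DMSO | timing = overnight cell settling, then overnight compound exposure, 37 °C, 5% CO2 | read-out basis = GFP/RFP fluorescence ratio | controls = DMSO and RFP-L50D-GFP cell wells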
Rce1 inh – inhibitors of yeast Ras-converting enzyme. Q03530. yeast membranes, quenched prenylated peptide cleavage fluorescence. calls only. hit rate 0.27% among 290,000;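 active = fall in fluorescence gain of 50% or more versus controls, with final raw signal at or below 3038400; inconclusive = same 50% fall but final raw signal above 3038400; inactive = fall in fluorescence gain under 50%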;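 also: plate controls were neutral control wells for no effect and wells lacking membranes for full effect; tested at 10 µM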
Target sequence (Q03530 whole entry, looked up): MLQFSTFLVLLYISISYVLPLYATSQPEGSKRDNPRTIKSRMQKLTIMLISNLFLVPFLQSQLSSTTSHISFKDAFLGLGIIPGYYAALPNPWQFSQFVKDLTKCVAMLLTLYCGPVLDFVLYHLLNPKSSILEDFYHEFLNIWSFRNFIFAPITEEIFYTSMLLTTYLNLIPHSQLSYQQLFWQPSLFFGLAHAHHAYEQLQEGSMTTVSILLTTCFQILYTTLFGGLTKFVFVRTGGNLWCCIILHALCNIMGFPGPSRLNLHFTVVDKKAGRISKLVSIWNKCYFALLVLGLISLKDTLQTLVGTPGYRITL
CSC inhib – blocks cancer stem cells. cancer stem cell-like cells viability, luminescence. inhibition, % at 7.5 µM. hit rate 1.1% among 300,000. AID 2717;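 active = mean at 75% or more and at least half the replicates too; inconclusive = mean and replicates disagree; tested in HMLE shEcad cells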;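 also: 0% = median of negative and 100% = median of positive control wells; the first replicate is given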
Yeast UUG start – alters start codon recognition fidelity in yeast; S. cerevisiae UUG-firefly luciferase reporter, luminescence/redox ratio; activity score, % at 18.7 µM; hit rate 0.13% among 350,000;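 active = replicate mean at a twofold rise or more, about +100% in these data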;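 also: firefly luciferase made from a UUG start codon reports start codon fidelity; reporter light over untreated wells divided by growth signal over untreated wells; some hits fall short of that in this replicate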
PABP polyA inh – blocks human PABP binding to poly(A) RNA. hit rate 1% among 290,000. fluorescence polarization. inhibition, % at 35 µM;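 active = 50% or more with normal probe brightness, or confirmed in later tests; inconclusive = above 50% with abnormal brightness, or retests that disagree; inactive = below 50% or failed in later tests; about a fifth of its hits are not listed in these tables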;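 also: calls also rest on retests at 20 µM and on dose response follow-up; controls were probe without protein and protein plus probe with vehicle; some compounds called inactive have numbers as strong as hits; many hits fall short of the cut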
Target sequence (P11940 whole entry, looked up): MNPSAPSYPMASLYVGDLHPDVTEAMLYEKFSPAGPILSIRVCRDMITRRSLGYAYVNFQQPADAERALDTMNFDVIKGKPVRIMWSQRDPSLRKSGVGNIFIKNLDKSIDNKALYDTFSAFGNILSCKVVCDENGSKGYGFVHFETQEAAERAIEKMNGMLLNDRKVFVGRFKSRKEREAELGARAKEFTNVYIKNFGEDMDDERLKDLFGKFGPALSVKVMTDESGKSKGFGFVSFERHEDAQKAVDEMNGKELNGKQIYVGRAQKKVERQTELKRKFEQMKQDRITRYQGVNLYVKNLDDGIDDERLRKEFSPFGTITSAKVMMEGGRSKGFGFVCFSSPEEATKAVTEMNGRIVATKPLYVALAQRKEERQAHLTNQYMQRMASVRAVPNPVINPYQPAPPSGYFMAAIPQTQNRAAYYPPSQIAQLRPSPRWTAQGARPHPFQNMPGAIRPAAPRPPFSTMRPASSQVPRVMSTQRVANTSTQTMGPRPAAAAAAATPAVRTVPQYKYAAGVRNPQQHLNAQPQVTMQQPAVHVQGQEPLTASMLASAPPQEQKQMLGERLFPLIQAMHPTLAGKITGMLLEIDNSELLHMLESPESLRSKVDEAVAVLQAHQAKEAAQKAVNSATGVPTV
eIF4H inh retest – further read-out of eIF4H inh, marked with its call; inhibition, %; compound at 20 µM; confirmation average;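 mean of two retest wells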
PABP polyA inh retest – also measured in PABP polyA inh; calls as there; inhibition, %; compound at 20 µM; confirmation repeats;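 mean of two retest wells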
MT1-MMP act inh RFP – also measured in MT1-MMP act inh; calls as there; RFP signal change, %; measured here: RFP expression control read;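 0 = vehicle wells; hits needed this value within 50% of zero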
Active calls of the source: *; i = inactive; ? = inconclusive; / = no result given; & = joins results of further samples. Some of the compounds tested; count on the stated rates, not on these rows.

SMILES | eIF4H inh | HIV Env fusion | MT1-MMP act inh | MT1-MMP act inh RFP | Rce1 inh | CSC inhib | Yeast UUG start | PABP polyA inh | others
O=C1NC(=O)C(=Cc2ccc(Sc3ccccc3)o2)C(=O)N1 | ? | -40.4 | 3.1 | 10.7 | i | 18.0 | -22.7 | ?
COc1ccc(CCNCc2ccccc2)cc1 | -3.4 | -6.0 | 2.1 | 0.5 | i | -1.9 | -2.6 | -0.6
COC(=O)CCCCC1SCC(NC(=O)c2ccccc2)C1Cl (configuration not stated) | ? | 4.3 | 3.0 | 5.7 | i | -1.7 | -0.8 | ?
Cc1cc(C)c(N=Cc2c(O)[nH]c(=O)[nH]c2=O)c(C)c1 | -4.4 | 48.4 | 3.6 | -0.3 | / | 9.0 | -5.5 | -8.7
CC(C)(C)C(=O)OC[N+](C)(C)CCOC(=O)C(O)(c1ccccc1)C1CCCC1 (configuration not stated) | -9.7 | 2.6 | 1.0 | 2.1 | i | -3.5 | / | -5.1
CN1CCc2nc3sc(C#N)c(N)c3c(-c3cccs3)c2C1 | 34.6 | / | -45.9 | 4.5 | i | 7.1 | 0.2 | 57.3 | eIF4H inh retest=6.1;PABP polyA inh retest=1.8
CN1C(=O)/C(=C/C=C/c2ccco2)C(=O)NC1=S | ? | -37.7 | -9.5 | 35.6 | i | -28.0 | / | ?
Cc1ccc(-n2c(O)c(/C=N/NC(=O)c3ccncc3)c(=O)[nH]c2=O)cc1 | ? | -7.9 | -13.3 | 11.2 | i | 4.4 | / | -6.4
CC(c1ccccc1)[n+]1ccccc1 (configuration not stated) | / | 1.9 | 0.4 | 0.3 | i | -0.1 | -11.9 | /
COc1ccc(CC2=NCCc3cc(OC)c(OC)cc32)cc1OC | / | 0.6 | 1.5 | 1.6 | / | / | -3.1 | /

5 entries already listed, arranged by SMILES length, smallest number first:
SMILES | eIF4H inh | HIV Env fusion | MT1-MMP act inh | MT1-MMP act inh RFP | Rce1 inh | CSC inhib | Yeast UUG start | PABP polyA inh | others
CC(c1ccccc1)[n+]1ccccc1 (configuration not stated) | / | 1.9 | 0.4 | 0.3 | i | -0.1 | -11.9 | /
CN1C(=O)/C(=C/C=C/c2ccco2)C(=O)NC1=S | ? | -37.7 | -9.5 | 35.6 | i | -28.0 | / | ?
CN1CCc2nc3sc(C#N)c(N)c3c(-c3cccs3)c2C1 | 34.6 | / | -45.9 | 4.5 | i | 7.1 | 0.2 | 57.3 | eIF4H inh retest=6.1;PABP polyA inh retest=1.8
O=C1NC(=O)C(=Cc2ccc(Sc3ccccc3)o2)C(=O)N1 | ? | -40.4 | 3.1 | 10.7 | i | 18.0 | -22.7 | ?
Cc1cc(C)c(N=Cc2c(O)[nH]c(=O)[nH]c2=O)c(C)c1 | -4.4 | 48.4 | 3.6 | -0.3 | / | 9.0 | -5.5 | -8.7

Following part.
SMILES | eIF4H inh | HIV Env fusion | MT1-MMP act inh | MT1-MMP act inh RFP | Rce1 inh | CSC inhib | Yeast UUG start | PABP polyA inh | others
Nc1c2c(nc3sc4c(c13)CCCCC4)CCCC2 | -3.6 | -6.5 | 2.7 | 1.2 | i | 9.5 | -36.2 | 11.4
O=C(/C=C/c1ccccc1)NCCc1cnc[nH]1 | 31.0 | / | 4.7 | 5.0 | i | 1.7 | -5.4 | -2.7
COc1ccccc1OCC(=O)N1CCN(Cc2ccc3c(c2)OCO3)CC1 | -8.8 | 5.3 | 4.2 | 2.7 | i | -8.4 | / | 3.7
COc1ccc(C2SCC(=O)Nc3c2c(C)nn3-c2ccccc2)cc1OC (configuration not stated) | -5.4 | -19.5 | 1.1 | -5.6 | i | -3.4 | -1.8 | -13.5
Nc1cccc2c1Cc1cc([N+](=O)[O-])ccc1-2 | / | 1.6 | -32.6 | -3.0 | / | / | -13.0 | /
C[C@@H]1CN([C@H](C)CO)C(=O)CCCn2nncc2CO[C@@H]1CN(C)C(=O)Oc1ccccc1 | / | 49.2 | 0.2 | 4.8 | / | / | -9.9&-16.4 | /
CC(=O)C1C(=O)NC23CCCCC2C1c1ccccc1O3 (configuration not stated) | -4.3 | -84.9 | -4.7 | -1.5 | i | -8.4 | -9.7 | 1.5
CCOC(=O)C(O)(c1ccc(NC(=O)NC)cc1)C(F)(F)F (configuration not stated) | 2.0 | 3.1 | 0.0 | 0.6 | i | -14.4 | -15.0 | -5.2
CCSc1nnc(C(N)Cc2ccccc2)o1 (configuration not stated) | -1.8 | -33.3 | -4.0 | 4.0 | i | -10.4 | -13.0 | 0.4
C[C@]12CCC3C(CC[C@H]4C[C@H](O)[C@H](O)C[C@]34C)C1CC[C@@H]2O (some centres not stated) | / | 2.5 | 3.6 | -0.4 | / | / | 1.5 | /
CCC(=O)OC1(c2ccccc2)C(C)CN(C)CC1C (configuration not stated) | -5.5 | -3.3 | -1.3 | -0.3 | i | 9.0 | -24.6 | 4.7
O=C1CCCN1C(=O)c1cncc(Br)c1 | -2.5 | -50.1 | 0.2 | 1.7 | i | -4.2 | / | -11.3
CN(C)C1(CNC(=O)c2ccc(NS(=O)(=O)c3ccc(Cl)c(Cl)c3)cc2)CCCCC1 | / | -7.1 | 2.0 | 4.2 | / | / | 0.2 | /
CN(C)C(Cc1ccccc1)C(=O)c1ccc(-c2ccccc2)cc1 (configuration not stated) | -6.8 | / | -3.2 | -0.9 | i | -4.1 | -20.4 | -11.4
C=CCn1c(O)c(C(CC)=Nc2cccc(C(=O)O)c2)c(=O)[nH]c1=O | 1.0 | 8.7 | -4.0 | 5.4 | i | 12.9 | / | -0.4
COC(=O)C1=C(c2cccc(OC)c2OC)C[C@@H]2CC[C@H]1N2C(=O)NC(C)C | / | 11.9 | 2.6 | 6.7 | i | -3.8 | 2.5 | /
Cc1c(CC(=O)N2C[C@H]3C[C@@H](C2)c2cccc(=O)n2C3)c(=O)oc2c(C)c(O)ccc12 | 8.4 | / | -2.7 | 1.3 | i | 1.1 | -0.1 | -10.2
Cc1ccc(-n2c(O)c(C=Nc3ccc(S(N)(=O)=O)cc3)c(=O)[nH]c2=O)cc1 | ? | -8.0 | -34.7 | 4.2 | i | 2.2 | -14.9 | 13.8
COC(=O)C1=C(c2ccc(F)cc2F)C[C@@H]2CC[C@H]1N2C(=O)NCc1ccco1 | / | 7.8 | 1.5 | -1.1 | / | -6.8 | -12.2 | /
O=C(COc1ccccc1Cl)N1CCCC(N2CCN(c3ccc(F)cc3)CC2)C1 (configuration not stated) | -12.5 | 12.4 | 4.4 | -13.3 | i | -5.9 | -8.3 | 3.6
Cc1cccc(CCNCc2cc3ccc(C)cc3[nH]c2=O)c1 | 2.1 | 5.7 | -0.4 | 3.0 | i | 3.1 | -19.6 | -1.3
Nc1cc(Cl)c2nonc2c1[N+](=O)[O-] | 17.2 | i | -27.3 | -35.4 | / | 36.0 | / | -5.5
CC(C)Cn1cc(C(=O)N2CCC3(CC2)OCCO3)c2c3ccccc3n(C)c2c1=O | -1.6 | 16.1 | 10.0 | 3.5 | / | / | 11.3 | -2.4
Cn1c(O)c(C(=N)COc2cccc(Cl)c2)c(=O)n(C)c1=O | -7.4 | -66.9 | 11.7 | 6.3 | i | 0.8 | -16.1 | -3.1
COC(=O)C1=C(c2cccc(OCc3ccccc3)c2)C[C@@H]2CC[C@H]1N2C(=O)NCCOc1ccccc1Cl | / | 26.7 | -1.0 | -12.0 | / | 27.2 | -28.4 | /
CCN(CC)C(=O)Oc1ccc(NC(=O)N2CCOCC2)cc1 | 1.2 | -2.6 | -1.9 | 2.0 | i | -6.5 | 1.2 | 2.1
CCCCCn1c(=O)c(C(=O)NC(C)c2ccccc2)c(O)c2ccccc21 (configuration not stated) | 2.4 | 2.0 | 2.1 | -14.3 | i | 34.2 | -20.0 | 6.0
COC(=O)C1=C(c2ccc(F)cc2OCc2ccccc2)C[C@@H]2CC[C@H]1N2C(=O)NCCCOC(C)C | / | -34.4 | -6.8 | -2.9 | / | 4.6 | -4.1 | /
Cc1cc(O)c2c(c1)OC(C)(C)C1=C2CC(C)CC1 (configuration not stated) | 2.0 | -7.6 | -3.4 | -5.9 | i | 32.2 | -16.0 | 1.2
CCNC(=S)N1CCn2cccc2C1c1cccnc1 (configuration not stated) | -5.1 | 1.1 | -2.4 | 3.5 | i | -21.0 | / | -15.7
CC(=NCC1CCCO1)c1c(O)n(-c2ccccc2C)c(=O)[nH]c1=O (configuration not stated) | -7.9 | -3.4 | 2.2 | 2.6 | i | -12.9 | / | -4.5
CCCOC(=O)c1ccc(-[n+]2c(-c3ccccc3)cc(-c3ccccc3)cc2-c2ccccc2)cc1 | / | -13.8 | 9.8 | -32.8 | i | 2.2 | -5.2 | /
Cc1cccc(-n2c(-c3ccc([N+](=O)[O-])cc3)nc3ccccc3c2=O)c1 | 12.2 | 20.8 | -2.2 | -2.3 | i | 25.7 | / | 5.1
Cc1cc(C)c(S(=O)(=O)NCC2CCC(C(=O)N3CCC4(CC3)OCCO4)CC2)c(C)c1 (configuration not stated) | -14.6 | / | 0.5 | -5.0 | i | -0.5 | 1.3 | -6.8
CNP1(NC)=Nc2nn(-c3ccccc3)c(N)c2C(c2ccccc2)=N1 | 3.7 | / | -0.3 | -0.6 | i | / | -16.5 | -2.2
Cn1c(O)c(/C=N/N2CCCCC2)c(=O)[nH]c1=O | -3.1 | 3.9 | -1.8 | 0.8 | i | -6.7 | / | 1.4
CCOC(=O)c1c(/N=C/C2C(=O)NC(=O)NC2=O)sc2c1CCC2 | 31.3 | -13.4 | -6.3 | 4.9 | i | -15.8 | -9.3 | 13.5
O=C1NS(=O)c2cc([N+](=O)[O-])cc([N+](=O)[O-])c21 (configuration not stated) | -7.9 | -2.8 | 2.7 | 5.5 | i | -5.0 | 4.7 | 3.2
Cc1ccccc1N1CCN(C2CCCN(C(=O)Cc3c(C)noc3C)C2)CC1 (configuration not stated) | 4.8 | 4.3 | 0.7 | 0.6 | i | -7.9 | -17.9 | 8.2
CCOC(=O)C1SC2(C(F)(F)C(F)F)CC1(O)c1c(c(OC)c3occc3c1OC)O2 (configuration not stated) | 8.5 | -15.5 | 1.1 | -2.3 | i | 1.8 | / | 10.4
O=c1[nH]c(=O)n(CCC2=CCCCC2)c(O)c1/C=N/Nc1cccc2ccccc12 | ? | 14.0 | -22.3 | -4.7 | i | 9.1 | / | 35.1* | PABP polyA inh retest=114.3*
O=C(Cc1ccccc1)Oc1ccc(N2C(=O)C3CCCCC3C2=O)cc1 (configuration not stated) | 1.9 | -30.5 | 4.4 | 6.1 | i | 0.5 | -12.2 | -7.5
O=C(N/N=C1/CN2CCC1CC2)c1cc2ccccc2cc1O | 4.8 | -25.3 | 1.8 | -0.4 | / | 3.3 | -15.9 | 6.7
C=C[C@@H]1C2=CCOC(=O)C2=CO[C@H]1O[C@@H]1O[C@H](CO)[C@@H](O)[C@H](O)[C@H]1O | / | 8.4 | -11.8 | 3.4 | / | -25.5 | -3.2 | /
Oc1ccccc1-[n+]1c(-c2ccccc2)cc(-c2ccccc2)c(O)c1-c1ccccc1 | / | 16.6 | -5.7 | -0.9 | i | 29.6 | -10.3 | /
Clc1cccc(N2Cc3cc(-c4ccccc4)ccc3-n3nncc3C2)c1 | / | -107.1 | 4.2 | -5.1 | / | / | -2.8 | /
